VACV Venus inh: vaccinia inhibition (Venus reporter). Vaccinia virus Venus reporter expression, fluorescence. 0.46% of 330,000 active. Potency, µM (titrated, usually from 36.5 µM), without a hit: top-dose activity change, negative = inhibition, most hits filed as inhibitors; active means well fitted inhibition curve with a large enough effect; inconclusive means small, poorly fitted or top-dose-only effect; inactive means no such curve, though single readings can be large or run the other way; tested in A549 cells; further: nearly all actives have a fitted effect of over 30% in size; inactives centre near -10
VACV mCherry inh: vaccinia inhibition (mCherry reporter); Potency, µM (titrated, usually from 36.5 µM), without a hit: at the highest dose activity change, negative = inhibition, hits mostly inhibitors; Vaccinia virus mCherry reporter infection, fluorescence; about a quarter of the inactives have no number; 0.63% of 310,000 active; active = well fitted inhibition curve with a large enough effect; inconclusive = small, poorly fitted or top-dose-only effect; inactive = no such curve, though single readings can be large or run the other way; tested in A549 cells; further: nearly all actives have a fitted effect of over 35% in size; inactives centre near -10
* hit, by the source's call; & = joins results of further samples; [ ] = remark or other dose. On the % scale 0 is the no-effect control and ±100 the full control effect; potency means the concentration at half of the fitted maximal effect. Compounds were not picked by outcome, and some 0.87% of all compounds hit somewhere here.

For CN(C)S(=O)(=O)c1ccc(C(=O)NCCS(=O)(=O)N2CCN(c3ccccc3)CC2)cc1 the results were VACV Venus inh -14% and VACV mCherry inh -10%.
Screening CC1=NN(C(=O)c2ccc(Cl)cc2)C(O)(c2ccccc2)C1 (stereo not given) returned VACV Venus inh -14% and VACV mCherry inh inconclusive.
Screening CCOC(=O)c1ccc(NC(=O)CCc2c(C)nc3c(c(C)nn3-c3ccccc3)c2C)cc1 returned VACV Venus inh -12% and VACV mCherry inh -14%.
C#CCOCCOCCOCCNc1nc(N2CCOCC2)nc(N2CCN(C(=O)[C@H](CCC(=O)O)n3cc(C(N)Cc4ccc(O)cc4)nn3)CC2)n1 (stereo not given in full) was read as VACV Venus inh -7% and VACV mCherry inh inactive.
For CCCCCOc1ccc(C(=O)CCN2CCOCC2)cc1 the results were VACV Venus inh -23% and VACV mCherry inh -7%.
COc1ccc(NC(=O)CN(C)S(=O)(=O)c2ccc3nc(C)sc3c2)cc1 was read as VACV Venus inh -17% and VACV mCherry inh inactive.
Screening CCN(CC(=O)NCc1ccc(Cl)cc1)C(=O)/C=C/c1cccs1 returned VACV Venus inh -27% and VACV mCherry inh -30%.
`COC(=O)Cn1cc(/C=N/NC(=O)c2ccc(C#N)cc2F)c2ccccc21` gave VACV Venus inh -6% and VACV mCherry inh -2%.
Screening O=C(C1CC(=O)N(C2CCCCC2)C1)N1CCN(c2cccc(C(F)(F)F)c2)CC1 (stereo not given) returned VACV Venus inh -20% and VACV mCherry inh -28%.
`O=C(CSc1ccc(-c2ccccn2)nn1)NCc1ccc(F)cc1` gave VACV Venus inh -9% and VACV mCherry inh -19%.
`CCCc1n[nH]c2c1C(=O)CC(C)(C)C2` gave VACV Venus inh -15%.
For O=C(NCc1ccc2c(c1)OCO2)c1cccc2c1C(=O)N(C1CCCCC1)C2 the results were VACV Venus inh -9% and VACV mCherry inh -12%.
COc1ccc(CC(=O)Nc2cccc(-c3csc(C)n3)c2)cc1 was read as VACV Venus inh -23%.
Screening O=C(NC1CC1)c1cc2c(F)cccc2s1 returned VACV Venus inh -25% and VACV mCherry inh -14%.
Screening S=C(Nc1ccccc1)N1CCN(c2ccc(N3CCOCC3)nn2)CC1 returned VACV Venus inh -12% and VACV mCherry inh -9%.
For COc1ccc(/C=C2\C(=N)N3N=C(CC(=O)N4CCCCC4)SC3=NC2=O)cc1 the results were VACV Venus inh 3% and VACV mCherry inh -18%.
For O=C(c1ccc(-c2ccccc2)cc1)N1CCN(C(=O)c2ccco2)CC1 the results were VACV Venus inh -11%.
For c1ccc(CSCc2cn3ccsc3n2)cc1 the results were VACV Venus inh -16%.
Screening COc1ccc(NC(=O)CSc2nc3ccccc3n2CC(=O)Nc2cccc(C)c2C)cc1 returned VACV Venus inh -10% and VACV mCherry inh -13%.
`CCCCNS(=O)(=O)c1cccc(NC(=O)[C@H]2C[C@H](O)[C@@H](CO)O2)c1` gave VACV Venus inh -4% and VACV mCherry inh 4%.
COc1cc(/C=C(\C#N)c2nc3ccccc3[nH]2)ccc1OCc1ccc(F)cc1 was read as VACV Venus inh -22% and VACV mCherry inh -13%.
Screening CC(C)c1nc2c(c(=O)n(C)c(=O)n2C)n1C returned VACV Venus inh -10% and VACV mCherry inh inactive.
For Cc1ccc(S(=O)(=O)N2[C@@H](c3ccc(Br)cc3)C(C(=O)O)=CC[C@H]2c2ccc(Cl)c(Cl)c2)cc1 the results were VACV Venus inh inconclusive and VACV mCherry inh inconclusive.
For O=C(Cc1cccc(NC(=O)C2CCCN(C(=O)C3CC3)C2)c1)Nc1cccc(C(=O)N2CCOCC2)c1 (stereo not given) the results were VACV Venus inh -9% and VACV mCherry inh -6%.
Screening O=C1CCC([N+](=O)[O-])C(c2ccc(Cl)cc2)N1 (stereo not given) returned VACV Venus inh -2% and VACV mCherry inh -13%.
O=C(COC(=O)C1COc2ccccc2O1)NC(=O)NC1CCCC1 (stereo not given) was read as VACV Venus inh -22% and VACV mCherry inh -13%[1.46 µM].
Screening Cc1cc(/C=C2\SC(=S)NC2=O)c(C)[nH]1 returned VACV Venus inh 5% and VACV mCherry inh inconclusive.
C=CCc1ccccc1OCC(O)CN1CCN(c2ccc(C)cc2)CC1 (stereo not given) was read as VACV Venus inh -7% and VACV mCherry inh -21%.
`O=C(NN1C(=O)C2C3CCC(O3)C2C1=O)c1ccco1` (stereo not given) gave VACV Venus inh -10% and VACV mCherry inh -6%.
Screening COc1cc([N+](=O)[O-])ccc1NC(=O)NNC(=O)c1sccc1C returned VACV Venus inh 4% and VACV mCherry inh -18%.
For CCOc1ccccc1CNC(=O)c1cc2oc3ccccc3c2n1CC the results were VACV Venus inh 11% and VACV mCherry inh -19%.
For Cc1ccccc1OCC(=O)N(CC(C)C)c1c(N)n(CC(C)C)c(=O)[nH]c1=O the results were VACV Venus inh -7% and VACV mCherry inh inactive.
`Cc1cccc(N=C2NN=C(c3ccccc3F)CS2)c1C` gave VACV Venus inh 0% and VACV mCherry inh inconclusive.
Screening CCCC(=O)Nc1ccc(C(=O)/C=C/c2ccc(SC)cc2)cc1 returned VACV Venus inh inconclusive.
For Cc1ccc(NC(=O)CC2C(=O)NC3CCCCC3N2C(=O)c2ccc(F)cc2)cc1C (stereo not given) the results were VACV Venus inh -17%.
COc1cc(C(=O)N2CCSCC2)ccc1OC1CCN(C(C)=O)CC1 was read as VACV Venus inh -4% and VACV mCherry inh -13%.
`CCOc1ccc(NC(=S)N2CCCN(Cc3cccc(Cl)c3)C2)cc1` gave VACV Venus inh -20% and VACV mCherry inh -19%.
COc1cccc(CN2CCNC(=O)C2CC(=O)NCc2cn3ccc(C)cc3n2)c1OC (stereo not given) was read as VACV Venus inh -23%[7.34 µM] and VACV mCherry inh -2%[7.34 µM].
CCNC(=S)NNc1nncc2ccccc12 was read as VACV Venus inh 2% and VACV mCherry inh -6%.
`CS(=O)(=O)N1CCCC(C(=O)NCCN2CCC(Cc3ccccc3)CC2)C1` (stereo not given) gave VACV Venus inh 1% and VACV mCherry inh -9%.
`COc1ccccc1CNC(=O)CN(c1ccc(C)cc1)S(=O)(=O)c1c(C)n[nH]c1C` gave VACV Venus inh -8% and VACV mCherry inh -15%.
For CCOC(=O)c1c(-c2ccc(F)cc2)csc1NC(=O)CN1C(=O)NC2(CCCCC2C)C1=O (stereo not given) the results were VACV Venus inh inconclusive and VACV mCherry inh inactive.
`Cc1ccc(NNC(=O)c2ccno2)cc1C` gave VACV Venus inh -25% and VACV mCherry inh -7%.
Screening COc1ccc2nc(NNC(=O)c3cc(=O)c4ccccc4o3)sc2c1 returned VACV Venus inh -18% and VACV mCherry inh inconclusive.
For Cn1c(C(=O)NCCN2CCOCC2)cc2sccc21 the results were VACV Venus inh -11% and VACV mCherry inh -12%.
Screening Cc1c(N/C=C(\Cl)C(=O)C(F)(F)F)c(=O)n(-c2ccccc2)n1C returned VACV Venus inh 1% and VACV mCherry inh 0%.
`COc1cc(/C=C2\SC(=S)N(CC(=O)NC3=NCCS3)C2=O)cc(OC)c1OC` gave VACV Venus inh 11% and VACV mCherry inh inactive.
`Cc1cccc2cc(CNCCCN3CCCC3=O)c(N3CCN4CCCC4C3)nc12` (stereo not given) gave VACV Venus inh -19% and VACV mCherry inh inactive.
`Cc1ccc(S(=O)(=O)N2CCN(C(=O)CN3CCCSc4ccccc43)CC2)cc1` gave VACV Venus inh -25% and VACV mCherry inh -12%.
Cc1ccc(OCC(=O)NCCN2CCOCC2)cc1C was read as VACV Venus inh -16% and VACV mCherry inh inactive[1.46 µM].
Screening CCC(=O)NC(=S)Nc1cccc(-c2nc3ncccc3o2)c1 returned VACV Venus inh -14% and VACV mCherry inh inactive.
Cc1ccc(CNC(=O)CSCc2ccc(F)cc2)cc1 was read as VACV Venus inh 7%&-13% and VACV mCherry inh -13%&-10%.
For Cc1ccc(OCCn2cnc3ccccc3c2=O)c([N+](=O)[O-])c1 the results were VACV Venus inh -3% and VACV mCherry inh -10%.
Screening COc1ccc(NC(=O)CSc2nc(O)c(Cc3ccccc3)c(=O)[nH]2)cc1 returned VACV Venus inh 0% and VACV mCherry inh -7%.
Screening COC(=O)C[C@H]1c2cc(F)ccc2S(=O)(=O)N1Cc1ccccc1 returned VACV Venus inh -15%&-10% and VACV mCherry inh -17%.
Cc1cccc(-c2nc(C#N)c(N3CCC(C)CC3)o2)c1 was read as VACV Venus inh -3% and VACV mCherry inh -8%.
`CN(c1cccc(NC(=O)CN(c2ccc(Cl)c(Cl)c2)S(=O)(=O)c2ccccc2)c1)S(C)(=O)=O` gave VACV Venus inh inconclusive and VACV mCherry inh inconclusive.
`CCOc1ccccc1NC(=O)C1CCCCN1S(=O)(=O)c1ccc(F)cc1` (stereo not given) gave VACV Venus inh -15% and VACV mCherry inh -8%.
For CCOC(=O)c1c(NC(=O)c2c(-c3ccccc3)noc2C)sc(C)c1-c1ccccc1 the results were VACV Venus inh -2%.
For CN(C)Cc1ccc(F)cc1Sc1cc(Cl)ccc1Cl the results were VACV Venus inh -17% and VACV mCherry inh -21%.

Next section; it opens with the two that closed the last part.
For CCOC(=O)c1c(NC(=O)c2c(-c3ccccc3)noc2C)sc(C)c1-c1ccccc1 the results were VACV Venus inh -2%.
For CN(C)Cc1ccc(F)cc1Sc1cc(Cl)ccc1Cl the results were VACV Venus inh -17% and VACV mCherry inh -21%.
`O=c1[nH]c(C2CC2)nc2sc3c(c12)CCCC3` gave VACV Venus inh -9% and VACV mCherry inh inactive.
For CCN(CC)c1ccc(/C=N/NC(=O)C(O)c2ccccc2)cc1 (stereo not given) the results were VACV Venus inh -8% and VACV mCherry inh -1%.
`COc1cccc(N/C(=N/C(=S)Nc2ccc(C)cc2C)Nc2nc(C)cc(C)n2)c1` gave VACV Venus inh -10%[7.34 µM] and VACV mCherry inh inconclusive.
For O=C(Cn1cnc2c(cnn2-c2ccc(Cl)cc2)c1=O)NC1CCCCC1 the results were VACV Venus inh -8% and VACV mCherry inh 1%.
`CCOc1ccc(-n2c(SCC(=O)Nc3ccc4c(c3)OCO4)nc3ccccc3c2=O)cc1` gave VACV Venus inh -9% and VACV mCherry inh -12%.
Screening COc1ccc(Cc2n[nH]c(=S)n2Cc2ccccc2)cc1Cl returned VACV Venus inh 1% and VACV mCherry inh inactive.
Screening CCOC(=O)C1CCCN(C(=O)Cn2c(=O)c3cccn3c3cccnc32)C1 (stereo not given) returned VACV Venus inh 4% and VACV mCherry inh -11%.
CCCCC(=O)Nc1nnnn1CCC was read as VACV Venus inh -6% and VACV mCherry inh -12%.
CC(=O)N1N=C(c2ccco2)CC1c1cccs1 (stereo not given) was read as VACV Venus inh -15% and VACV mCherry inh inactive.
Screening COc1cccc(CNC(=O)c2ccc3c(c2)nc2n3CCC(C)C2)c1 (stereo not given) returned VACV Venus inh -8%[7.34 µM] and VACV mCherry inh -12%[7.34 µM].
CC(C)CC(N)c1csc(Nc2cnccn2)n1 (stereo not given) was read as VACV Venus inh 10µM* and VACV mCherry inh 11µM*.
COc1ccc(S(=O)(=O)N(CC(=O)NCc2ccncc2)c2ccc(C)cc2)cc1OC was read as VACV Venus inh 4% and VACV mCherry inh inactive.
For Cc1cc(C)c(NC(=O)c2ccc3c(c2)C(=O)N(Cc2cccnc2)C3=O)c(C)c1 the results were VACV Venus inh -12% and VACV mCherry inh inactive.
Screening CCCCNC(=S)NC(=O)c1ccc(Cl)cc1Cl returned VACV Venus inh -12%.
Screening CCOC(=O)CSc1nc(C(C)(C)C)nc2ccccc12 returned VACV Venus inh 5% and VACV mCherry inh 0%.
Screening CCOC(=O)c1c(C)oc2ccc(OC(=O)N3CCOCC3)cc12 returned VACV Venus inh -11% and VACV mCherry inh -22%.
For O=Cc1cccc(OC(=O)Nc2ccccc2)c1 the results were VACV Venus inh -7% and VACV mCherry inh -25%.
For c1nc(N2CCOCC2)c2[nH]cnc2n1 the results were VACV Venus inh 5%.
Screening COc1ccc(O)c(/C=N/NC(=S)Nc2cccnc2)c1 returned VACV Venus inh inconclusive and VACV mCherry inh 11µM*.
`Cc1ccc2c(c1)C1C=CCC1C(C(=O)NCCCN1CCOCC1)N2` (stereo not given) gave VACV Venus inh -7% and VACV mCherry inh inactive.
O=C(NC1CC1)C1CCN(c2nc3ccccc3s2)CC1 was read as VACV Venus inh -24% and VACV mCherry inh -1%.
`COc1ccc(C2/C=C\CN(C(=O)c3ccccc3)[C@H](Cc3ccccc3)C(=O)N2Cc2ccc(F)cc2)cc1` (stereo not given in full) gave VACV Venus inh inconclusive and VACV mCherry inh -25%.

Molecules from the list above with a thiophene ring, fused or not:
Screening CCN(CC(=O)NCc1ccc(Cl)cc1)C(=O)/C=C/c1cccs1 returned VACV Venus inh -27% and VACV mCherry inh -30%.
Screening O=C(NC1CC1)c1cc2c(F)cccc2s1 returned VACV Venus inh -25% and VACV mCherry inh -14%.
Screening COc1cc([N+](=O)[O-])ccc1NC(=O)NNC(=O)c1sccc1C returned VACV Venus inh 4% and VACV mCherry inh -18%.
For CCOC(=O)c1c(-c2ccc(F)cc2)csc1NC(=O)CN1C(=O)NC2(CCCCC2C)C1=O (stereo not given) the results were VACV Venus inh inconclusive and VACV mCherry inh inactive.
For Cn1c(C(=O)NCCN2CCOCC2)cc2sccc21 the results were VACV Venus inh -11% and VACV mCherry inh -12%.
For CCOC(=O)c1c(NC(=O)c2c(-c3ccccc3)noc2C)sc(C)c1-c1ccccc1 the results were VACV Venus inh -2%.
`O=c1[nH]c(C2CC2)nc2sc3c(c12)CCCC3` gave VACV Venus inh -9% and VACV mCherry inh inactive.
CC(=O)N1N=C(c2ccco2)CC1c1cccs1 (stereo not given) was read as VACV Venus inh -15% and VACV mCherry inh inactive.

Screens from PubChem BioAssay.
